D2 potentiator = Beta-Arrestin HTS for Positive Allosteric Modulators of the Human D2 Dopamine Receptor: Potentiators. 360,000 compounds, 0.23% hits. D(2) dopamine receptor (Homo sapiens), P14416. potentiation, % (no concentration beside the values). DiscoveRx D2 beta-arrestin cells, luminescence, 90 min; 100% = 57 uM dopamine signal. AID 624464, 2012; active = potentiation of 50% or more; inconclusive = 30% to 50%; inactive = 30% or less;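 note: compound concentration not given in the record; tested on top of an EC20 dose of dopamine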
Target sequence (P14416 whole entry, looked up): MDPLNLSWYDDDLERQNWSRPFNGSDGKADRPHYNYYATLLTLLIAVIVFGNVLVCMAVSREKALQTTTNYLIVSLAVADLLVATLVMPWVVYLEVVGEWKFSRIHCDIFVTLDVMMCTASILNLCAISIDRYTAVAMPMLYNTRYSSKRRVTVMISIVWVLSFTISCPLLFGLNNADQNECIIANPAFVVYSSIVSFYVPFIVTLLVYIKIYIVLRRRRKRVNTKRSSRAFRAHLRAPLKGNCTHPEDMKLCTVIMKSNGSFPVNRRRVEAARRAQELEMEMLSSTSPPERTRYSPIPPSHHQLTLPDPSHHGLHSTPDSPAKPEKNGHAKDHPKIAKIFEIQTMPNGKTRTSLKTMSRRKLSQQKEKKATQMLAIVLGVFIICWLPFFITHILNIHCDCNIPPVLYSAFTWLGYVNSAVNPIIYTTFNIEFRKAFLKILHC
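PathHunter D2 cells, attached overnight at 37 deg C, received compound in DMSO plus dopamine at EC20 (50 nM final) for 90 min at 37 deg C. Beta-arrestin recruitment was read as luminescence after 1 h with detection reagent at ambient temperature.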
Menin-MLL FL inh = qHTS Assay for Inhibitors Targeting the Menin-MLL Interaction in MLL Related Leukemias: Competition With Fluorescein Labeled MLL-derived Peptide; Fluorescence polarization, fluorescein-MLL peptide displacement from menin; 290,000 tested, under 10 active; FP activity change, % at 61.4 µM; inconclusive = falling polarisation curve, or a change in total fluorescence; inactive = total fluorescence flat and polarisation flat or rising; no compound was filed as active; the % refers to the polarisation; negative = inhibition;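 note: % of control where 0% means no effect; inhibitors lower the polarisation; unlabelled MLL peptide was the positive control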
TRPV1 PAM = HTS Assay for Compounds that Act as Potentiators of the Vanilloid Receptor 1; 320,000 compounds, 0.02% hits; AID 540277, 2011; potentiation, % at 8.33 µM; Transient receptor potential cation channel subfamily V member 1 (Homo sapiens), Q8NER1; TRPV1-expressing cells, Fluo-8 calcium influx, capsaicin EC20 potentiation; host cell line not named in the record; control for the full effect not named in the record; active means potentiation above 80%; inconclusive means 30% to 80%; inactive means below 30%; note: 0% is about no effect
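TRPV1-expressing cells were cultured overnight at 35.5C and loaded with Fluo-8 calcium dye for 40 to 90 min at room temperature. After a 10 s baseline, compound was added and calcium influx was read kinetically for 3 min (ex 480/em 520 nm).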
Sfp inh = qHTS Assay for Inhibitors of Bacillus subtilis Sfp phosphopantetheinyl transferase (PPTase); Biochemical Sfp PPTase activity, qHTS; Potency, µM, for inactives: max response, negative = inhibition, actives largely listed as inhibitors; 310,000 compounds, 3.5% hits; AID 1490, 2009; active = well fitted inhibition curve with a large enough effect; inconclusive = small, poorly fitted or top-dose-only effect, or another doubt; inactive = no such curve, though single readings can be large or run the other way;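 note: the enzyme is Sfp with the accession as filed and its product quenches rhodamine fluorescence; potency is the fitted concentration of half-maximal effect; 0% = enzyme reaction without inhibitor and -100% = no enzyme wells; top concentration of the series not given in the record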
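Compounds were incubated with enzyme (final 15 nM) for 15 min at room temperature before substrate addition started the reaction. Fluorescence at 525 nm excitation, 598 nm emission was recorded immediately and after 30 minutes.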
gsp antagonist = qHTS for Antagonists of gsp, the Etiologic Mutation Responsible for Fibrous Dysplasia/McCune-Albright Syndrome: qHTS | gsp-mutant cells, cAMP HTRF, 30 min; control for the full effect not named in the record | Potency, µM (doses to about 76.9 µM), for the others: top-dose activity change, negative = inhibition, hits mostly inhibitors | 340,000 compounds, 0.4% hits | AID 624288, 2012; active = falling curve of any shape with a large fitted effect; inconclusive = falling curve, mostly with a smaller effect; inactive = flat or rising curve; cell line not stated here;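 note: intracellular cAMP measured with PDE inhibitor Ro 20-1724 present during compound exposure; potency is the fitted concentration of half-maximal effect; % is set by controls: 0 for no effect and ±100 for the full control effect; nearly all actives have a fitted effect of over 65% in size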
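Cells in G418 medium, seeded 16-24 h, 37C; buffer exchange to DPBS + 1 mM CaCl2, 0.5 mM MgCl2, 0.05% BSA; cpds in DMSO + […] (300 uM stock), 30 min 37C; HTRF cAMP detection.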
gsp agonist = qHTS for Agonist of gsp, the Etiologic Mutation Responsible for Fibrous Dysplasia/McCune-Albright Syndrome: qHTS | AID 624287, 2012 | gsp mutant cells, cAMP HTRF, 30 min; control for the full effect not named in the record | 340,000 compounds, 0.13% hits | Potency, µM (highest dose often 76.9 µM), inactives show at the top dose activation (cAMP increase), hits mostly activators; active = well fitted activation curve with a large enough effect; inconclusive = small, poorly fitted or top-dose-only effect, or another doubt; inactive = no such curve, though single readings can be large or run the other way; cell line not stated here;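 note: phosphodiesterase inhibitor Ro 20-1724 added with compounds to block cAMP breakdown; potency is the fitted concentration of half-maximal effect; nearly all actives have a fitted effect of over 60% in size; about a fifth of the inactives were tested at one dose only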
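Cells in DMEM/10% FBS with G418 were pretreated with compounds in DMSO plus […] (300 uM stock) for 30 min at 37C. cAMP was measured by HTRF (cAMP-d2 plus anti-cAMP antibody-K) after 30 min at room temperature.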
ClpP mod = qHTS Assay for Activators of ClpP | purified B. subtilis ClpP, FRET peptide cleavage, 20 min | Potency, µM (highest dose often 57.5 µM), inactives show at the highest dose activity change, negative = active | ATP-dependent Clp protease proteolytic subunit (Bacillus subtilis (strain 168)), P80244 | AID 651965, 2013 | 340,000 compounds, 1.9% hits; active = well fitted falling curve with a large enough effect; inconclusive = small, poorly fitted or top-dose-only effect; inactive = no such curve, though single readings can be large or run the other way; note: potency is the fitted concentration of half-maximal effect; the source files actives as falling curves though it sought activators and does not explain the sign; nearly all actives have a fitted effect of over 65% in size; many hits overshoot -100%
Target sequence (P80244 whole entry, looked up): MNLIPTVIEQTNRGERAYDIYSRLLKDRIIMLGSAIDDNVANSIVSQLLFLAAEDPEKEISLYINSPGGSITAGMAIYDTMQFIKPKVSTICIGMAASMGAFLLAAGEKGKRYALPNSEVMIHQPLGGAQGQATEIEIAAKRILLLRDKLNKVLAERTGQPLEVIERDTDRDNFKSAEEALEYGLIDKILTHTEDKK
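ClpP 10 microg/mL final, pH 8 Tris/KCl buffer with BSA, glycerol, Tween-20; compound pinned in; FRET-FV substrate; RT 20 min; Ex320/Em430; ΔFRET vs ADEP 5.8 microM, DMSO, no enzyme.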
Starred values were filed as active, the others as inactive; ? = inconclusive; nt = no result given; [ ] = remark or other dose.

Below each SMILES: D2 potentiator	Menin-MLL FL inh	TRPV1 PAM	Sfp inh	gsp antagonist	gsp agonist	ClpP mod
1. O=c1c2cc(N3CCOCC3)ccc2[nH]c(=S)n1Cc1ccccc1Cl
    2	5.2	5	?	-5%	?	nt
2. CC(C)c1ccc(NC(=O)COC(=O)C2CCCCC2)cc1
    30	nt	-18	nt	8%	5%	0.7%
3. O=[n+]1c2c(n([O-])c3cc(Br)ccc31)CCC2
    9	1.7	-7	?	-5%	-10%	-4.3%
4. COc1ccc(CCNC(=O)c2cccc(S(=O)(=O)N3CCCC3)c2)cc1
    -3	nt	17	nt	1%	7%	-3.5%
5. O=C(Nc1ccnn1C1CCN(Cc2ccc(OC(F)F)cc2)CC1)C1CCCC1
    -12	nt	-23	5%	-6%	-9%	-0.3%
6. CC1(C)CC2CC(C)(CN2C(=O)COC(=O)c2ccc(O)cc2O)C1 (stereo not given)
    -4	nt	nt	nt	-15%	-54%[inhibitor]	-0.5%
7. O=C(CNC(=O)c1ccc(S(=O)(=O)N2CCCC2)cc1)N/N=C/c1ccccc1
    -5	1.9	5	14%	-2%	-8%[15.4 µM]	-6.9%
8. CCCOc1ccc(/C(O)=C2/C(=O)C(=O)N(CCN(C)C)C2c2ccc(O)c(OC)c2)cc1 (stereo not given)
    11	0.1	2	8%	1%	3%	-3.4%
9. O=C(COc1cc2oc(=O)c3c(c2cc1Cl)CCC3)NCc1ccncc1
    -4	nt	5	25%	-8%	?	-10%
10. COc1ccc(CN2C(=O)NC3(CCCCCC3)C2=O)cc1F
    -4	0.1	1	12%	8%	?	1.0%

Along the list, quoted from above.
Entries 1 to 10 in ClpP mod, in turn: nt, 0.7%, -4.3%, -3.5%, -0.3%, -0.5%, -6.9%, -3.4%, -10%, 1.0%

The results go on:
Below each SMILES: D2 potentiator	Menin-MLL FL inh	TRPV1 PAM	Sfp inh	gsp antagonist	gsp agonist	ClpP mod
11. Cc1nnc(NCc2ccco2)c2ccccc12
    -11	0.4	5	10%	-7%	8%	25µM*
12. Cc1cccc(-n2c(C)cc(C(=O)NC3CCCCC3)c2C)c1
    -18	2.5	-2	2%	-14%	-4%	-2.0%
13. CN1CCN(C2CCN(S(=O)(=O)c3ccc(C(C)(C)C)cc3)CC2)CC1
    -4	-1.8	0	13%	5%	12%[15.4 µM]	nt
14. CSC1=NNC(c2ccc(C(C)(C)C)cc2)=NN1
    -8	6.6	-13	10%	8%	-68%[inhibitor]	-1.2%
15. C=C(C)CN1C(=O)C(=O)N(CC(=C)C)C1=O
    -5	-0.6	-4	4%	1%	19%[15.4 µM]	nt
16. Cc1cc(=O)[nH]c(SCc2cccc3cccnc23)n1
    9	4.7	7	-11%	1%	-8%[15.4 µM]	nt
17. CCOC(=O)C1=C(c2ccccc2)NC(=S)NC1c1ccc(C)c([N+](=O)[O-])c1 (stereo not given)
    -4	1.1	-21	11%	-10%	-53%[inhibitor]	-8.1%
18. Cc1ccc(C(=O)C(C)OC(=O)c2ccc(Cl)nc2)cc1 (stereo not given)
    -18	nt	-9	nt	-8%	-35%[inhibitor]	-1.5%
19. CC(=O)n1cc(N(C(=O)CCl)c2ccc(C)cc2)c2ccccc21
    -8	-0.1	0	9%	-12%	-21%	nt
20. CCCN1CCN(CC(=O)NCC(=O)Nc2cccc(C)c2C)CC1
    -11	nt	3	nt	2%	4%[15.4 µM]	nt
21. Cc1ccc(-c2nc(CS(=O)CC(=O)NC(C)CCc3ccccc3)c(C)o2)cc1 (stereo not given)
    -12	nt	-3	-7%	0%	-6%	-9.0%
22. NC(=O)NC(=O)COC(=O)CNS(=O)(=O)c1ccc(F)c(F)c1F
    -8	0.2	nt	5%	15%	10%	-1.4%
23. CCC(C)(C)C1CCc2[nH]nc(C(=O)NCc3ccc(OC)cc3)c2C1 (stereo not given)
    -2	nt	6	nt	-10%	nt	3.5%
24. COCCCNC(=O)CN(c1cccc(Cl)c1)S(C)(=O)=O
    -7	5.9	15	-2%	13%	-1%	2.2%
25. CC(C)=C1C2CCC1C1C(=O)N(c3nc(-c4ccc(C(C)C)cc4)c(C)s3)C(=O)C21 (stereo not given)
    -16	0.2	10	0%	-11%	-16%	0.3%
26. O=C(NC(Cc1ccc(O)cc1)C(=O)N=Nc1c(O)[nH]c2ccccc12)c1ccccc1 (stereo not given)
    -14	nt	nt	nt	-1%	-51%[inhibitor]	-1.6%
27. Cn1c(CSCc2ccc(F)cc2)nnc1SCC(=O)N1CCN(c2ccccc2)CC1
    1	1.8	16	-4%	-4%	-24%	-2.2%
28. COc1ccc(C(=O)NCCN2CCOCC2)cc1S(=O)(=O)Nc1ccc(C)cc1
    -4	nt	-8	nt	12%	1%	-2.6%
29. O=c1c2c(-c3ccc([N+](=O)[O-])cc3)csc2nc2n1CCCCC2
    -7	1.9	-6	-26%	-17%	15%[15.4 µM]	-12%
30. CCOC(=O)C1(Cc2ccccc2Cl)CCN(C(=O)CCn2ccnc2C)CC1
    -12	-2.1	-17	9%	12%	-18%	1.2%
31. CN1C=CC(=C2C(=O)c3ccccc3C2=O)C=C1
    nt	3.4	1	-16%	nt	nt	nt
32. O=C1NCCN(Cc2ccc(-c3ccccc3)cc2)C1CC(=O)N1CCN(CCO)CC1 (stereo not given)
    -3	-25	5	-15%	9%	3%[15.4 µM]	nt
33. CCN(CC)S(=O)(=O)c1cccc(-c2nnc(SC(C)C(=O)NCCC3=CCCCC3)o2)c1 (stereo not given)
    -5	-1.1	-3	2%	-7%	?	-1.3%
34. CC1CCCN(c2ccc(C(=O)Nc3ccc4c(c3)OCO4)cc2[N+](=O)[O-])C1 (stereo not given)
    -20	0.2	-1	10%	-12%	0%	1.1%
35. CC(=O)Nc1ccc(S(=O)(=O)NCCC(=O)NNC(=O)c2ccccc2O)cc1
    -3	nt	-4	nt	10%	-25%	-25%
36. CC(NC(=O)OC(C)(C)C)C(=O)NC(CCC(=O)OCc1ccccc1)C(N)=O (stereo not given)
    -5	-2.4	-8	-1%	4%	-27%[15.4 µM]	nt
37. O=[N+]([O-])CC(c1ccccc1)c1c[nH]c2ccccc12 (stereo not given)
    6	nt	nt	nt	5%	8%	0.9%
38. COc1ccc(NC(=O)Cn2nc(C(=O)O)c3ccccc3c2=O)cc1Cl
    -7	-4.3	6	-5%	-1%	17%[15.4 µM]	nt
39. N#Cc1ccccc1OCCCN1CCC(Cc2ccccc2)CC1
    -7	-13	-4	-7%	5%	15%	-1.4%
40. Cn1cccc1/C=N/NC(=O)c1ccncc1
    0	5.0	16	9%	1%	10%	nt

5 entries from above, ordered by their value in gsp agonist, smallest number first:
no.	Structure	gsp agonist
35	CC(=O)Nc1ccc(S(=O)(=O)NCCC(=O)NNC(=O)c2ccccc2O)cc1	-25%
25	CC(C)=C1C2CCC1C1C(=O)N(c3nc(-c4ccc(C(C)C)cc4)c(C)s3)C(=O)C21 (stereo not given)	-16%
21	Cc1ccc(-c2nc(CS(=O)CC(=O)NC(C)CCc3ccccc3)c(C)o2)cc1 (stereo not given)	-6%
28	COc1ccc(C(=O)NCCN2CCOCC2)cc1S(=O)(=O)Nc1ccc(C)cc1	1%
11	Cc1nnc(NCc2ccco2)c2ccccc12	8%

The list continues.
Below each SMILES: D2 potentiator	Menin-MLL FL inh	TRPV1 PAM	Sfp inh	gsp antagonist	gsp agonist	ClpP mod
41. O=C(CN1C(=O)C(=O)N(Cc2ccccc2)C1=O)Nc1cc(Cl)cc(Cl)c1
    -2	-1.5	-3	42%[activator]	3%	18%[15.4 µM]	nt
42. CN1CCN(C(=O)/C(=C/c2ccc([N+](=O)[O-])cc2)NC(=O)c2ccccc2)CC1
    -5	nt	4	13%	14%	-7%[15.4 µM]	nt
43. COc1cccc(-c2noc(C3CCCN(C(=O)Cc4ccccc4)C3)n2)c1 (stereo not given)
    2	2.4	-10	2%	-20%	-17%	-1.1%
44. O=C(NCC1COc2ccccc2O1)c1ccc(NC(=O)C2CCCO2)cc1 (stereo not given)
    -4	-0.3	2	0%	-7%	22%	0.9%
45. O=C(COC(=O)C1CCCCC1)Nc1ccc(S(=O)(=O)N2CCOCC2)cc1
    1	-6.4	-18	1%	18%	0%[15.4 µM]	-0.1%
46. C=CCn1c(SCc2c(C)noc2C)nc2sc(C)c(C)c2c1=O
    -12	0.7	8	-24%	-7%	12%	2.4%
47. CN1CCCC(OC(=O)c2cccc(S(=O)(=O)N3CCCCCC3)c2)C1 (stereo not given)
    -5	5.1	8	13%	5%	2%[15.4 µM]	nt

3 compounds out of the list, sorted by molecular weight, descending.
Below each SMILES: D2 potentiator	Menin-MLL FL inh	TRPV1 PAM	Sfp inh	gsp antagonist	gsp agonist	ClpP mod
26. O=C(NC(Cc1ccc(O)cc1)C(=O)N=Nc1c(O)[nH]c2ccccc12)c1ccccc1 (stereo not given)
    -14	nt	nt	nt	-1%	-51%[inhibitor]	-1.6%
45. O=C(COC(=O)C1CCCCC1)Nc1ccc(S(=O)(=O)N2CCOCC2)cc1
    1	-6.4	-18	1%	18%	0%[15.4 µM]	-0.1%
19. CC(=O)n1cc(N(C(=O)CCl)c2ccc(C)cc2)c2ccccc21
    -8	-0.1	0	9%	-12%	-21%	nt
